VACV E9 pol inh: vaccinia E9 polymerase processive synthesis inhibition; normalized absorbance, % (test concentration not listed); in vitro processive DNA synthesis, absorbance read-out; active compounds read low; some inactives read as strong as hits; 46,000 compounds, 0.94% hits;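 active = replicate mean up to 90% and picked by the depositor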;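 note: 100% = median of the test wells of a plate; 100 nL library stock went into each well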
Starred values were filed as active, the others as inactive. An excerpt. The share of hits here may be higher or lower than overall.

item	SMILES	VACV E9 pol inh
1	CCC(C)NC(=O)C1c2cc(OC)c(OC)cc2C(=O)N(C)C1c1ccc(OC)c(OC)c1 (stereo unspecified)	94
2	C=C(C)Cn1c(COc2ccc(Cl)cc2)nnc1SCC(=O)O	101
3	S=C1NC(c2ccccc2)=NCN1c1ccc(Cl)cc1	100
4	CSc1nc(N2CCCCC2)c2c(c1C#N)CCCC2	100
5	COc1ccccc1NC(=O)CSc1c2c(nc3ccccc13)CCC2	101
6	CCC1=NC(c2ccccc2OC)N(O)C1(C)C (stereo unspecified)	100
7	Nc1ccn(C2O[C@H](CO)[C@@H](O)[C@H]2O)c(=O)n1 (stereo partly specified)	100
8	CC1CCN(S(=O)(=O)c2ccc(F)c(F)c2)CC1	95
9	COc1ccc(C(=O)NCc2nnc(SC)n2C2CCCCC2)cc1	100
10	Cc1ccc(C)c(C(=O)CSc2nc3nc(C)cc(C)c3c(=O)[nH]2)c1	100
11	COc1ccc(/C=C/C(=O)Nc2ccn(-c3ccccc3)n2)cc1	105
12	Cc1ccc(F)cc1N1CC(C(=O)O)CC1=O (stereo unspecified)	101
13	CCC1(C)CC(=O)NC1=O (stereo unspecified)	101
14	Cc1sc2ncnc(NCC(=O)O)c2c1C	91
15	N#CCCN(C(=O)Cn1c(Cc2ccccc2)nc2ccccc21)c1ccccc1	106
16	CNC(=O)CSCc1cnn(-c2ccccc2)c1-n1cccc1	101
17	COc1ccc(-c2nc3nnc(C)n3[nH]2)c(OC)c1	100
18	CCc1[o+]c(-c2ccccc2)cc2c1CCCC2	100
19	O=C(O)c1ccc2c(c1)no[n+]2[O-]	100
20	CCOC(=O)c1c(NC(=O)CSc2ncnc3ccccc23)sc2c1CCC2	100
21	O=C(CCn1c(=O)oc2ccccc21)NCc1cccs1	99
22	Cc1cc2cc(CNC(=O)C3CCCCC3)ccc2n1C	103
23	C=CCn1c(=N)c(C#N)cc2c(=O)n3ccccc3nc21	100
24	O=C(CSc1ncnn1CC(=O)c1ccc(Br)cc1)c1ccc(Br)cc1	102
25	CC(=O)Nc1c(C#N)c2nc3ccccc3nc2n1C1CCCCC1	103
26	O=C(Nc1ccccc1)c1c2c(nc3ccccc13)CCC2	94
27	CCOC(=O)c1c(C)oc(=O)c(Br)c1C	100
28	O=C(Nc1ccc(OC(F)(F)F)cc1)Nc1cc(-c2ccccc2)[nH]n1	106
29	FC(F)(F)Oc1ccccc1C=Nc1ccc(Cl)cc1	97
30	CC(=O)Oc1c(I)c(=O)n(C)c2ccccc12	94
31	CC(NC(=O)CCn1c(=S)oc2ccccc21)c1ccccc1 (stereo unspecified)	97
32	O=C(O)/C=C/c1ccc(-c2cccc(C(F)(F)F)c2)o1	100
33	CN(C)S(=O)(=O)c1ccc(C(=O)NCCSc2c[nH]c3ccccc23)cc1	100
34	Cc1c(C)n(Cc2ccccc2)c2ccc(C(=O)O)cc12	97
35	O=C(O)CCCn1c(O)c(C2=c3ccccc3=NC2=O)sc1=S	99
36	CSc1nc(/N=C/N(C)C)nn1CCC#N	98
37	c1ccc(N2CCN(CN3CCN(c4ccccc4)CC3)CC2)cc1	100
38	C=C(C)Cn1c(CNC(=O)c2ccc(F)cc2)nc2ccccc21	100
39	CC(=O)N1CCc2cc(Br)cc(S(=O)(=O)CC(=O)N3CCc4ccccc43)c21	96
40	COC(=O)C1=C(NC(=O)c2ccc(C(C)(C)C)cc2)CCS1	100

Given field by field: part of the list above
18) CCc1[o+]c(-c2ccccc2)cc2c1CCCC2
- VACV E9 pol inh: 100
19) O=C(O)c1ccc2c(c1)no[n+]2[O-]
- VACV E9 pol inh: 100
32) O=C(O)/C=C/c1ccc(-c2cccc(C(F)(F)F)c2)o1
- VACV E9 pol inh: 100
24) O=C(CSc1ncnn1CC(=O)c1ccc(Br)cc1)c1ccc(Br)cc1
- VACV E9 pol inh: 102

(cont.)
item	SMILES	VACV E9 pol inh
41	CC12CCC(C/C1=N/O)C2(C)CBr (stereo unspecified)	100
42	Cc1ccc(C(=O)NC2CCCCNC2=O)cc1 (stereo unspecified)	103
43	CSc1nc2ccc(NC(=O)c3ccc(N(C)C)cc3)cc2s1	99
44	CC1CCCN(c2c3c(nc4ccccc24)CCCC3)C1 (stereo unspecified)	86
45	CCOC(=O)c1c(C)nn(-c2ncccc2NC(=O)CCC(=O)O)c1C	100
46	COC(=O)C1=C(O)/C(=C\c2ccc(CNS(=O)(=O)c3ccccc3)o2)N=C1C	100
47	N#Cc1c(Nc2ccccc2)[nH]c(=O)[nH]c1=O	100
48	O=C(NC1CCN(C(=O)C2CCC2)CC1)C1CCCCC1	100
49	Cn1c(CNC(=O)c2ccccc2)nc2ccccc21	101
50	COc1ccc(CN(C(=O)/C=C/C(=O)O)C2CC(=O)N(c3ccccc3)C2=O)cc1 (stereo unspecified)	100
51	O=c1c2ccccc2c2ccccc2c(=O)n1Cc1ccccn1	102
52	C=CCn1c(C)cc(C(=O)CC#N)c1C	97
53	FC(F)(F)c1cnc(Sc2ncn[nH]2)c(Cl)c1	111
54	CC1CCN(Cn2c(=S)n(CN3CCC(C)CC3)c3ccccc32)CC1	100
55	CC1CC(C)CN(C(=O)c2ccc(CSc3nc4ccncc4n3Cc3ccc(F)cc3)cc2)C1 (stereo unspecified)	99
56	CCCN1C[C@H](CSC)C[C@@H]2c3cccc4[nH]cc(c34)C[C@H]21	100
57	Cc1oc(-c2ccc3c(c2)OCCO3)cc1C(=O)NC(C(=O)O)C(C)C (stereo unspecified)	98
58	CCOC(=O)c1c(SC)nc2c(C(F)(F)F)cccc2c1N1CCCC1	102
59	O=C1/C(=C\c2cccs2)SC(=S)N1CC(=O)N1CCCc2ccccc21	94
60	Cc1ccc(-c2nc(SCC(=O)c3ccc(Cl)cc3)n[nH]2)cc1	99
61	COc1ccccc1CNc1ccc(O)cc1	100
62	COc1cccc(CN2CCN(C(=O)c3cccs3)CC2)c1	99
63	OCC1(CO)CSC(Nc2ccc(F)cc2)=N1	100
64	CCOC(CNc1nc(C)nc2sc3c(c12)CCCC3)OCC	100
65	O=C(OCC1CCCN2CCCCC12)c1ccc(F)c(F)c1 (stereo unspecified)	100
66	NC1=NC(c2ccccc2)C(C(=O)c2ccccc2)N1 (stereo unspecified)	105
67	COc1ccc(C(=O)NC(=Nc2c(C)cccc2C)SC)cc1	100
68	COc1ccc(-c2nc3cc(N=Cc4cccc(OC)c4O)ccc3o2)cc1	100
69	Cc1cc(C)c2nc(N3CCC(C(=O)N4CC(C)CC(C)C4)CC3)sc2c1 (stereo unspecified)	105
70	Cc1nccc(-c2nn(-c3ccc(F)cc3)ccc2=O)n1	100
71	Cc1ccc(CNC(=O)Nc2ccccc2)n1C	99
72	N#Cc1ccc(C#CCOC(=O)Nc2ccc(Cl)cc2)cc1	90
73	Cc1ccc(-c2[nH]ncc2CN(C)Cc2ccccc2)cc1	100
74	Brc1ccsc1-c1csc(-c2ccncc2)n1	90
75	COC(=O)c1ccc(NC(=O)CSc2ncnc3ccccc23)cc1	98
76	Cc1ccc(S(=O)(=O)N(C)C)cc1	101
77	C=CCSc1nnc2c(n1)OC(c1ccccc1OCC(=O)O)Nc1ccccc1-2 (stereo unspecified)	100
78	COC(=O)c1noc(C)c1C(=O)/C=C/N(C)C	40*
79	O=C(COc1ccccc1)Nc1ccc(S(=O)(=O)N2CCCC2)cc1	109
80	COc1ccc(C2SCC(C(=O)NCc3ccc(F)cc3)N2C(C)=O)cc1 (stereo unspecified)	104
81	Cc1cc(Br)ccc1SCC(=O)OCC(=O)N1CCCC(C)C1 (stereo unspecified)	102
82	Cc1cc(N)n2nc(-c3ccccc3)cc2n1	91
83	CC(=O)Oc1ccc2nc(CN3C(=O)c4ccccc4C3=O)oc(=O)c2c1	101
84	COC(=O)c1ccc(/C=C2\SC(N)=NC2=O)cc1	101
85	Cc1nc(N)oc1C(O)c1ccccc1 (stereo unspecified)	99
86	CCOC(=O)c1cc(C(=O)/C=C/N(C)C)on1	100
87	CCCC12CCC(c3ccc(C#N)cc3)(CC1)CC2	99
88	Nc1ccc(C(=O)OCc2nc3cc4ccccc4cc3[nH]2)cc1	100
89	Cc1ccc(NC2=NC(C)(C)CS2)cc1	98
90	C=C(C)CSc1nnc(SCc2cccc3ccccc23)s1	92

(further entries)
item	SMILES	VACV E9 pol inh
91	CCN(CC)c1nc(-c2ccncc2)nc2ccccc12	98
92	CCN1CCN(C(=O)C2=COCCO2)CC1	106
93	CN(C(=O)c1ccc(S(=O)(=O)N2CCCC2)cc1)C1CCCCC1	94
94	N#Cc1c(-c2ccc(F)cc2)cc(-c2ccco2)nc1SCC(=O)Oc1ccccc1	101
95	COc1ccc(C(=O)c2sc3nc(-c4cccs4)cc(-c4cccs4)c3c2N)cc1	100
96	O=C1NCCCc2nc(Oc3ccccc3)sc21	95
97	Cc1ccccc1-n1c(=S)[nH]c2nc3c(cc2c1=O)CCCC3	100
98	O=C(NCCc1ccccc1)c1noc2c1CCc1ccccc1-2	102
99	CCCc1c(-c2ccccc2)nc2sc3c(c2c1N)CCCCC3	99
100	Nc1nonc1-c1ccccc1	100
101	O=C(/C=C/c1ccc(Br)o1)OCc1ccccc1	95
102	COc1ccc(CC(=O)NCCc2cc3cc(C)c(C)cc3[nH]c2=O)cc1OC	101
103	O=C(CSc1ccccn1)NCc1ccccc1	97
104	CSc1nc2c(c(-c3ccccc3)c1C#N)C(=O)CC(C)(C)C2	107
105	CN(CC(=O)N1CC=C(c2ccccc2)CC1)S(=O)(=O)c1cnc[nH]1	96
106	O=C(Cc1ccccc1)Nc1c(C(=O)N2CCCCC2)cnn1-c1ccccc1	100
107	CC(C)n1c(NN)nc2ccccc21	100
108	CCCCC/C=C\C[C@@H](/C=C/C=C\C/C=C\CCCC(=O)O)OO	100
109	N#CC(C(=O)N1CCCC1)C(=S)Nc1cccc(C(F)(F)F)c1 (stereo unspecified)	84
110	CN(C)c1ccc(/C=C2/N=C(c3ccccc3)OC2=O)cc1	101
111	CCC(C)NC(=O)CC(c1ccc(OC)cc1)n1cccc1 (stereo unspecified)	98
112	CC(C)(C)Cc1ccc(OCCCC(=O)O)c(CC(C)(C)C)c1	96
113	O=C(O)c1ccccc1-c1nn[nH]n1	101
114	CC(C)(C)C(=O)C[n+]1ccc(C(N)=O)cc1	101
115	CC(=O)Nc1nc2ccc(S(C)(=O)=O)cc2s1	101
116	COc1ccccc1N(C)C(=O)CCS(=O)(=O)c1ccc2c(c1)OCC(=O)N2	108
117	CCOC(=O)c1nc2ccccc2c(=O)[nH]1	106
118	CC(=O)Nc1ccc(OS(=O)Nc2nnc(C)c3ccccc23)cc1 (stereo unspecified)	102
119	O/N=C/c1cn(-c2ccccc2)nc1-c1cccnc1	98
120	N#C/C(=C\c1ccc(Cl)cc1Cl)c1c[nH]c2ccccc12	85
121	Cc1ccc2oc(=O)c3cnn(CC(=O)NCCCN4CCC(C)CC4)c3c2c1	100
122	Nc1ncc(Br)cc1S(=O)(=O)NCc1cccnc1	110
123	CC(C)(C)C(=O)c1cnc(Nc2ccccc2)s1	95
124	CC1CN(C(=O)n2ccnc2)c2ccccc2S1 (stereo unspecified)	93
125	O=C(c1ccccc1)N1CCN(c2ccc(NCc3ccc4c(c3)OCO4)cc2)CC1	100
126	O=c1oc2ccccc2n1Cn1c(=O)oc2ccccc21	98
127	Cc1cc(=O)oc2c(CN(C)C)c(O)ccc12	103
128	CCC(=O)Oc1ccc2c3c(c(=O)oc2c1)CCC3	95
129	O=C(OCC1CCCN2CCCCC12)c1ccccc1O (stereo unspecified)	101
130	CC1CC(C)(C)NC(=S)N1CC(=O)NCc1ccc2c(c1)OCO2 (stereo unspecified)	106
131	CCn1c(=O)c2cc(C(=O)N3CCN(Cc4ccccc4)CC3)sc2c2ccccc21	106
132	O=c1[nH]cnc2c1sc1nc(-c3ccccc3)cc(-c3ccccc3)c12	97
133	CC1=C(C(=O)Nn2cnc3cccc(F)c3c2=N)Sc2ccccc2N1	95
134	OCCCc1nc2n(n1)C(c1ccccc1)C=C(c1ccccc1)N2 (stereo unspecified)	107
135	CC(C)c1ccc(NC(=O)C(c2ccccc2)N2CCc3ccccc32)cc1 (stereo unspecified)	96
136	O=C(O)/C=C/c1ccc(-c2ccc(Cl)cc2)o1	71
137	Nc1nc2ccc(S(=O)(=O)N3CCCCC3)cc2s1	107
138	C=CCNc1nc(-c2ccc(Cl)cc2)cs1	99
139	CCCn1c(=O)c(CC(=O)OCC)c(O)c2ccccc21	92
140	CCOC(=O)N1CCN(C(=O)CSCC(=O)N=c2sc3ccccc3n2C)CC1	103

Reprinted at random: four entries already listed
item	SMILES	VACV E9 pol inh
139	CCCn1c(=O)c(CC(=O)OCC)c(O)c2ccccc21	92
135	CC(C)c1ccc(NC(=O)C(c2ccccc2)N2CCc3ccccc32)cc1 (stereo unspecified)	96
132	O=c1[nH]cnc2c1sc1nc(-c3ccccc3)cc(-c3ccccc3)c12	97
138	C=CCNc1nc(-c2ccc(Cl)cc2)cs1	99

Carrying on.
item	SMILES	VACV E9 pol inh
141	Cc1ccc(CSCc2ccc(C(=O)NCCC(C)C)o2)cc1	96
142	c1ccc2[nH]c(SCCCN3CCCCC3)nc2c1	100
143	COc1ccc(NC(=O)C(NC(=O)c2ccc(=O)[nH]c2)c2ccc(C)cc2)cc1 (stereo unspecified)	102
144	Cc1cc(C(=O)OCC(=O)N(C)C2CCCCC2)c(C)o1	93
145	CC1(C(=Nc2ccc(Cl)cc2)C(=O)Nc2ccc(Cl)cc2)OC(=O)C[n+]2ccccc21 (stereo unspecified)	90
146	O=C(O)CNc1ccccc1C(=O)O	90
147	CC1CC(Nc2ncnc3nc[nH]c23)CC(C)(C)C1 (stereo unspecified)	99
148	Cc1ccn(CCCNC(=O)c2cn(C(C)c3ccccc3F)nn2)n1 (stereo unspecified)	96
149	CCC(C)C1NC(=O)NC1=O (stereo unspecified)	100
150	CCCOc1ccc(=O)n(C)n1	100
151	N#CC(C#N)=C(N)COc1ccc(F)cc1	79
152	CC(C)CC(=O)N1CCN(Cc2ccc(Cl)cc2)CC1	100
153	CCCn1c2ccccc2c2ccccc21	100

Source: PubChem BioAssay (ICCB-Longwood Screening Facility, Harvard Medical School)
